ClpP mod: qHTS Assay for Activators of ClpP; purified B. subtilis ClpP, FRET peptide cleavage, 20 min; actives 1.9% (n = 340,000); ATP-dependent Clp protease proteolytic subunit (Bacillus subtilis (strain 168)), P80244; Potency, µM (series often up to 57.5 µM), inactives show at the top dose activity change, negative = active; active = well fitted falling curve with a large enough effect; inconclusive = small, poorly fitted or top-dose-only effect; inactive = no such curve, though single readings can be large or run the other way; note: potency is the fitted concentration of half-maximal effect; the source files actives as falling curves though it sought activators and does not explain the sign; nearly all actives have a fitted effect of over 65% in size; many hits overshoot -100%
Target sequence (P80244 whole entry, looked up): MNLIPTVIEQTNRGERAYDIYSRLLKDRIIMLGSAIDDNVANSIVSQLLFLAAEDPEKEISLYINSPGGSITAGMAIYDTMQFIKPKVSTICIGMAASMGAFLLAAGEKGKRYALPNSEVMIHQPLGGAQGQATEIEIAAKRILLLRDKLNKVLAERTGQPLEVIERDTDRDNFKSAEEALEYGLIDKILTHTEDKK
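ClpP 10 microg/mL final, pH 8 Tris/KCl buffer with BSA, glycerol, Tween-20; compound pinned in; FRET-FV substrate; RT 20 min; Ex320/Em430; ΔFRET vs ADEP 5.8 microM, DMSO, no enzyme.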
Sfp inh: Sfp phosphopantetheinyl transferase inhibition. actives 3.5% (n = 310,000). Potency, µM, for the others: max response, negative = inhibition, actives largely listed as inhibitors. Biochemical Sfp PPTase activity, qHTS; active = well fitted inhibition curve with a large enough effect; inconclusive = small, poorly fitted or top-dose-only effect, or another doubt; inactive = no such curve, though single readings can be large or run the other way;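 note: the enzyme is Sfp with the accession as filed and its product quenches rhodamine fluorescence; potency is the fitted concentration of half-maximal effect; 0% = enzyme reaction without inhibitor and -100% = no enzyme wells; top concentration of the series not given in the record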
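Sfp 15 nM + cpd, 15 min RT; start w/ rhodamine-CoA 5 uM, BHQ-2-YbbR 12.5 uM (final); 50 mM Hepes pH 7.6, 10 mM MgCl2, 0.01% NP-40, 0.01% BSA; read 525/598 nm at 0 and 30 min.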
TRPML1 inh: inhibitors of human TRPML1 channel; Q9GZU1; AID 624415; activity change, negative = inhibition, % (no concentration beside the values); actives 0.02% (n = 390,000); TRPML1-inducible cells, Ca2+ dye fluorescence, FDSS; stronger effect = lower value; inhibition of EC80 agonist-evoked calcium signal; in the data active means activity change below about -50%; inconclusive means about -30% to -50%; inactive means above about -30%;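 note: stimulus is agonist 54-4 at its EC80 concentration; % is set by controls: 0 for no effect and ±100 for the full control effect; compound concentration not given in the record; the text of the record puts the active cut at -80%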
Target sequence (Q9GZU1 whole entry, looked up): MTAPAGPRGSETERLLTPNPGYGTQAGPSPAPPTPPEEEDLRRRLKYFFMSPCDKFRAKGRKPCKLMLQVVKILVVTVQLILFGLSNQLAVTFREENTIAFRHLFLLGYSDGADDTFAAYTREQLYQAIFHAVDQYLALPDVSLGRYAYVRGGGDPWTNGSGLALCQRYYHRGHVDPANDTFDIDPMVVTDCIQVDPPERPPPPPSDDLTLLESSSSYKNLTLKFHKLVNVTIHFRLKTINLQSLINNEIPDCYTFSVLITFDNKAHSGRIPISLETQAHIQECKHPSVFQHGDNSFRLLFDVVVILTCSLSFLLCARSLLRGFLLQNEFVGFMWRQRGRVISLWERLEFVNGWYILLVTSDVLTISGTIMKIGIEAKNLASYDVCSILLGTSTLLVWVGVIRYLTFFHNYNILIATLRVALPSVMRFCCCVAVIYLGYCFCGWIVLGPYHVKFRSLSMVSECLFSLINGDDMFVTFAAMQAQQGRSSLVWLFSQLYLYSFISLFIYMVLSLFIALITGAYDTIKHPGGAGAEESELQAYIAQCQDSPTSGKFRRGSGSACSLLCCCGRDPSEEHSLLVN
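Tet-induced TRPML1-DL cells loaded with Ca8 no-wash calcium dye were read kinetically on FDSS. Compound addition was followed by EC80 agonist 54-4 (4 uM final); inhibition was read over 110 s.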
TRPML1 agonist: agonists of human TRPML1 channel | actives 0.12% (n = 410,000) | AID 624414 | activation, % (concentration not given with the values) | TRPML1-expressing cells, Ca2+ dye fluorescence, FDSS; host cell line not named in the record; reference of the full effect not given here | Q9GZU1; in the data active = activation above about 50%; inconclusive = about 30% to 50%; inactive = below about 30%; note: 0% is about no effect; the text of the record puts the active cut at 80%
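Cells: TRPML1-DL, 1X Tet inducer, ~16 h at 37 degrees C/5% CO2. Dye: ABD Ca8 no-wash + quencher, 45-90 min RT. Read: 10 s baseline, compound add, 110 s agonist phase; 54-4 EC80 (4uM final), 110 s antagonist phase.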
PINK1 expr mod: PINK1 expression modulation | Potency, µM (titrated, usually from 76.6 µM), for inactives: top-dose activation (PINK1 increase), hits mostly activators | PINK1 immunofluorescence, high-content cytometry, 24 h | actives 0.2% (n = 410,000) | AID 624263; active = well fitted activation curve with a large enough effect; inconclusive = small, poorly fitted or top-dose-only effect; inactive = flat fitted curve, though single readings scatter; cell line not stated here;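 note: potency is the fitted concentration of half-maximal effect; % of control where 0% means no effect; nearly all actives have a fitted effect of over 65% in size; a mitochondrial uncoupler was the plate control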
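Compound titrations (5 concentrations, 24 h) on a stable cell line; DMSO and CCCP controls. Endpoint: fixed-cell PINK1 immunofluorescence with mitochondrial, cell and nuclear markers, scanned by microplate cytometer.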
TRPV1 potentiator: enhances activation of the human vanilloid receptor TRPV1; potentiation, % at 8.33 µM; TRPV1-expressing cells, Fluo-8 calcium influx, capsaicin EC20 potentiation; host cell line not named in the record; control for the full effect not named in the record; AID 540277; Q8NER1; actives 0.02% (n = 320,000); active means potentiation above 80%; inconclusive means 30% to 80%; inactive means below 30%; note: 0% is about no effect
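Cells expressing TRPV1 were dye-loaded with Fluo-8 and read kinetically: 10 s baseline, 3 min after compound (agonist portion), then 2 min after EC20 capsaicin (allosteric enhancer portion). Calcium-bound dye fluorescence at 480/520 nm.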
Menin-MLL FL inh: inhibitors of human menin-MLL interaction, wild-type MLL peptide | 290,000 tested, under 10 active | FP activity change, % at 61.4 µM | Fluorescence polarization, fluorescein-MLL peptide displacement from menin; inconclusive = falling polarisation curve, or a change in total fluorescence; inactive = total fluorescence flat and polarisation flat or rising; no compound was filed as active; the % refers to the polarisation; negative = inhibition;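 note: % of control where 0% means no effect; inhibitors lower the polarisation; unlabelled MLL peptide was the positive control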
* = called active by the depositor; ? = inconclusive; . = no result given; & = joins results of further samples; [ ] = another dose, or the depositor's remark. Hits appear at their usual frequency, and some 4.4% of all compounds hit somewhere here.

compound,ClpP mod,Sfp inh,TRPML1 inh,TRPML1 agonist,PINK1 expr mod,TRPV1 potentiator,Menin-MLL FL inh
CC(C)(C)NC(=O)CSc1nnc(NC(=O)CCn2cnc3ccccc3c2=O)s1,-18%,1%,-3,-0.4,0.1%,26,8.6
Cc1cc(C)n(-c2cc(C(C)(C)C)nc3c(-c4ccc(Cl)cc4)cnn23)n1,-2.6%,-26%,-22,0.0,26%[38.3 µM],-24,4.5
Cc1ccc(S(=O)(=O)N(C)CC(=O)OCC(=O)Nc2ccccc2)cc1,-2.1%,-25%,.,.,-0.2%,16,4.5
CCOC(=O)c1[nH]c2ccc(F)cc2c1NC(=O)CCN1CCOCC1,.,-1%,-16,1.8,-0.1%,16,2.2
Cc1ccc(C)c(N(CC(=O)NC2CCCC2)C(=O)c2cc3cc4cccc(C)c4nc3s2)c1,-17%,-1%,9,7.7,.,.,3.7
O=C(N/N=C\c1ccc(-c2ccc([N+](=O)[O-])cc2)o1)c1ccc2c(c1)OCO2,0.6%,-11%,-17,0.0,?,-12,?
CC[C@]1(c2ccccc2OC)ON(c2ccccc2C(F)(F)F)C1=O,3.1%,.,-25,4.2,-0.7%,-2,.
CC[C@]12CCCN3CCc4c(n(c5ccccc45)C(=O)C1)[C@@H]32,0.0%,.,22,-0.7,3.5%,2,.
Cc1ccccc1NC1=C(Cl)C(=O)N(C2CCCCC2)C1=O,-5.2%,?,-5,3.3,14%,-30,13
COc1ccc(C(=O)Nc2ccc(C3(C#N)CCCC3)cc2)cc1OC,0.5%,3%,9,0.2,0.1%,-5,-0.7
Cc1cccnc1C(NC(=O)C1CCN(CCOc2ccc(F)cc2)CC1)c1ccc(Cl)cc1 (stereo not given),2.7%,.,.,0.0,0.1%,.,.
COc1ccc(NC(=O)Nc2c[nH]c(=O)[nH]c2=O)c(OC)c1,1.2%,.,17,2.0,1.0%,.,.
CC(C)(C)c1cc(-n2ccnc2)n2ncc(-c3ccc(Cl)cc3)c2n1,9.9%,12%,-17,0.4,4.6%,-24,1.1
COc1ccccc1OCC(=O)NN=C(Cc1ccccc1)Cc1ccccc1,-21%,-4%,11,1.0,-0.9%,10,3.9
Cc1cccc(C(O)c2ncc(-c3ccccc3)[nH]2)c1C (stereo not given),-0.8%,.,-6,0.2,0.7%,.,.
CC(=O)Nc1ccc(NC(=O)c2nc(SCc3ccccc3F)ncc2Cl)cc1,-30%,.,.,-0.6,2.3%,.,.
Cc1cccc(/C=N/n2c(-c3ccccc3)n[nH]c2=S)c1O,.,79µM*,5,2.4,-0.6%,13,2.6
CCOc1ccc(NC(=O)C[n+]2ccc(N(C)C)cc2)cc1,-0.5%,-18%,16,0.1,3.2%,-6,-0.3
Cc1cccc(NC(=O)CSCC(=O)Nc2cc(Cl)ccc2N2CCN(C)CC2)c1,1.2%,6%,-4,1.2,-0.9%,-3,-6.8
CCc1ccc(Nc2n[n+](-c3ccccc3)c(-c3ccc(N(CC)CC)cc3)s2)cc1,4.2%,50µM*,-2,11,?,17,?
O=c1c2ccccc2nc(-c2cccs2)n1-c1ccc2ccccc2c1,15%,-14%,4,0.6,2.9%,13,-0.8
Oc1cccc(N2Cc3ccccc3C2)c1,-0.1%,-8%,15,-0.3,4.1%,-1,7.0
Cc1ccc2oc(=O)c3cnn(CC(=O)N4CCN(c5cc(Cl)ccc5C)CC4)c3c2c1,-4.7%,.,2,-0.3,0.3%,.,.
CC(=O)/C(C#N)=C1\NC(=O)C(Cc2ccc(C)c(C)c2)S1 (stereo not given),-4.4%,-7%,-12,4.4,21%,20,2.8
Cn1nc(-c2ccccc2)nc1-c1ccccc1,-1.7%,.,?,0.3,0.1%,0,.
Oc1cccc(/C=C/c2ccc3cccc(O)c3n2)c1,-0.2%,-7%,-2,-0.9,-2.0%,18,-1.2
O=C(Nc1cc(Cl)cc(Cl)c1)c1ccc(F)c(S(=O)(=O)NCc2ccccc2Cl)c1,?,.,21,0.9,?,.,.
O=C(NNS(=O)(=O)c1cc(Cl)c(Cl)cc1Cl)c1cccnc1,0.4%,-14%,-13,0.4,0.1%,8,.
O=C(O)CCC(=O)Nc1ccc(-n2ccc(C(F)(F)F)n2)cc1,.,-19%,15,-1.0,-0.9%,-15,-1.3
Cc1c(C#N)c2ccccc2n1CC(=O)NCCc1c[nH]c2ccccc12,1.1%,24%,-9,0.8,3.3%,.,3.0

Later entries:
compound,ClpP mod,Sfp inh,TRPML1 inh,TRPML1 agonist,PINK1 expr mod,TRPV1 potentiator,Menin-MLL FL inh
N#Cc1nc(COc2ccc(Br)cc2)oc1N1CCCCCC1,0.5%,?,5,1.4,-0.7%,.,-2.3
CCOC(=O)c1ccccc1NC(=O)COC(=O)C1CC(=O)N(c2ccc3c(c2)OCCO3)C1 (stereo not given),-4.7%,.,26,3.4,-4.7%,-19,.
NC(=O)CSc1nnc(-c2ccccc2Br)n1-c1cccc(C(F)(F)F)c1,-3.7%,8%,-1,-0.2,2.2%,1,10
Cc1ccc(C(=O)COC(=O)C(C)N2C(=O)C3C4CCC(C4)C3C2=O)cc1C (stereo not given),-1.5%,-2%,17,1.3,-1.5%,-9,1.3
Cc1ccc(S(=O)(=O)c2nc(-c3ccc(F)cc3)oc2SCC(=O)c2ccccc2)cc1,-2.4%,.,25,1.0,-1.8%,.,.
O=C(CC(c1ccccc1)c1ccccc1O)NCc1ccccc1Cl (stereo not given),0.7%,5%,2,0.6,-1.2%,3,3.2
COc1ccc(C=C2CCc3ccccc3C2=O)cc1,0.1%,.,.,0.1,4.2%,.,.
NC(=O)c1ccsc1NC(=O)COC(=O)CCc1ccccc1,-2.0%,.,-13,1.0,-0.2%,.,.
COc1ccc(N=Nc2c(N)n[nH]c2N)cc1,.,-1%,1,-1.4,-0.8%,0,1.7
C=CCOC(=O)c1cc(-c2ccc(/C=C3\C(=O)NC(=O)C(C#N)=C3C)o2)ccc1Cl,-11%,50µM*,-3,-1.2,1.6%,-11,?
CCOC(=O)/C=C/C(=O)OCC(=O)Nc1c(Cl)cccc1Cl,.,5%,-6,0.1,0.9%,9,-1.8
Cc1cccn2c(=O)cc(COc3cccc(NC(=O)COc4ccccc4)c3)nc12,22%,.,?,0.7,-14%,.,.
CN(C)CCN1CCN(C2CN(C3CCCCC3)S(=O)(=O)C2)CC1 (stereo not given),2.3%,.,.,-0.1,-0.3%,.,.
CCOc1ccccc1Nc1cc(C)nc2ccc(C)cc12,-0.5%,.,21,1.0,?,.,.
COc1ccccc1CNCc1ccc2c(c1)OCO2,-1.1%,.,-4,-0.5,-1.1%,.,.
CC(C(=O)Nc1cccnc1)c1ccc([N+](=O)[O-])cc1 (stereo not given),.,13%,-3,1.1,0.2%,-2,3.3
COc1cccc(NC(=O)CCSc2nc(-c3ccco3)cc(C(F)(F)F)n2)c1,-6.4%,.,-6,2.4,0.2%,.,.
COc1ccccc1OCC(=O)Nc1ccc(C(=O)Nc2ccccc2C(=O)O)cc1,-0.6%,.,13,2.6,0.3%,.,.
COc1ccc2c(c1OC)C(=O)N1c3ccccc3C(=O)N(c3ccccc3)C21 (stereo not given),-1.6%,-1%,-8,0.3,-0.9%,-22,4.2
Cn1c(=O)c2[nH]c(C3CCCC3)nc2n(C)c1=O,-1.9%,-8%&2%,13,-0.9,1.5%,.,-6.0&0.0
Cc1ccc(-c2nc3c(Cl)cc(C(F)(F)F)cn3c2Cc2ccccc2)cc1,?,.,.,-0.2,4.3%,.,.
CC1(C)CC(=O)c2c(S(C)(=O)=O)sc(Br)c2C1,-4.6%,14%,10,0.5,2.4%,2,-1.1
O=C1C=C(c2cnc3ccccc3c2)C[C@@H](c2ccc3c(c2)OCO3)C1,-0.7%,.,-15,1.5,1.3%,-13,.
CCOc1ccccc1NC(=O)C1CCN(S(=O)(=O)c2cccs2)CC1,?,.,-8,-0.3,-0.9%,.,.
CC1(C)CC(=O)c2sc(NS(=O)(=O)c3ccc(Cl)cc3)nc2C1,.,10%,4,0.7,-2.3%,24,-1.5
CC#CC(=O)N1CCC(CO)(CCc2ccccc2)CC1,0.0%,4%,5,-0.8,1.0%,16,-3.3
CC1(C)Cc2c(c(N3CCOCC3)nc3sc(C#N)c(N)c23)CS1,28µM*,-1%,1,3.7,0.5%,-7,0.9
CSCCOC(=O)COc1ccc(/C=N/NC(=O)c2c(Cl)cnn2C)cc1,-1.7%,3%,18,-0.4,2.3%,1,0.7
COCCN(C(=O)CC1C(=O)NCCN1CC(c1ccccc1)c1ccccc1)C(C)C (stereo not given),-3.9%,-13%,24,0.6,-1.0%,-8,-2.7
COc1ccc(NC(=O)N2CCNC(=O)C2CC(=O)Nc2ccc(F)cc2)cc1 (stereo not given),-1.9%,15%,-15,0.0,-1.6%,6,.

Remaining list, next part:
compound,ClpP mod,Sfp inh,TRPML1 inh,TRPML1 agonist,PINK1 expr mod,TRPV1 potentiator,Menin-MLL FL inh
O=C(CSc1nnc(NC(=O)C2CCC2)s1)Nc1ccccc1F,0.8%,6%,13,-1.8,6.4%,10,1.3
Cc1oc2c(CN3CCCCC3)c(O)ccc2c(=O)c1-c1ccc(Br)cc1,.,1%,1,-0.7,1.5%,3,3.8
O=C(Nc1ccc2c(c1)C(=O)N(c1ccccc1)C2=O)C1CCCO1 (stereo not given),0.3%,12%,-1,-0.8,5.8%[38.3 µM],-14,-4.4
C=C1CCN(c2ccc(C(=O)NCCC)cc2[N+](=O)[O-])CC1,1.9%,.,18,1.3,1.0%,.,.
O=C(CNCC1CCCO1)NCc1ccco1 (stereo not given),0.4%,45µM*,0,-1.0,1.7%,-13,-7.9
O=C(CN1C(=O)C2C3C=CC(C3)C2C1=O)Nc1ccc(C(=O)O)cc1 (stereo not given),0.8%,10%,-7,-0.1,8.2%[38.3 µM],-4,0.9
COC(=O)c1cnc(SCC(=O)c2ccccc2)n1C,0.0%,15%,0,-0.1,1.6%,-11,0.6
CCc1ccccc1N1C(=O)CN(Cc2cc(OC)c(OC)c(OC)c2)C1=S,.,-3%,-18,-0.5,2.2%,-3,-0.4
CC(C)(C)NC1=NCCNC(c2ccccc2)=C1,-1.5%,.,8,-0.1,1.0%,.,.

Bioassay records as filed in PubChem BioAssay.
